High-throughput results deposited in PubChem by National Center for Advancing Translational Sciences (NCATS).
TRPML1 agonist: agonists of human TRPML1 channel; actives 0.12% (n = 410,000); TRPML1-expressing cells, Ca2+ dye fluorescence, FDSS; host cell line not named in the record; reference of the full effect not given here; Q9GZU1; activation, % (no concentration beside the values); in the data active = activation above about 50%; inconclusive = about 30% to 50%; inactive = below about 30%; also: 0% is about no effect; the text of the record puts the active cut at 80%
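Kinetic FDSS Ca2+ read in Tet-induced TRPML1-DL cells (ABD Ca8 dye plus quencher, 45-90 min RT loading): baseline, then compound, then 110 s agonist window; EC80 agonist 54-4 at 4uM final added afterwards for a 110 s antagonist window.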
TRPML1 inh: inhibitors of human TRPML1 channel. Q9GZU1. TRPML1-inducible cells, Ca2+ dye fluorescence, FDSS; stronger effect = lower value; inhibition of EC80 agonist-evoked calcium signal. activity change, negative = inhibition, % (no concentration beside the values). actives 0.02% (n = 390,000); in the data active means activity change below about -50%; inconclusive means about -30% to -50%; inactive means above about -30%;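 also: stimulus is agonist 54-4 at its EC80 concentration; % is scaled to controls: 0 for no effect and ±100 for the full control effect; compound concentration not given in the record; the text of the record puts the active cut at -80%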
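TRPML1-DL cells, Tet-induced overnight (~16 h, 37 °C) at 1,500 cells/well, were loaded with Ca8 no-wash dye plus quencher for 45-90 min at room temperature. Compounds were pinned during FDSS kinetic reading; agonist 54-4 at EC80 (4 uM final) then added.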
D2 ag: agonists of human D2 dopamine receptor (beta-arrestin); P14416; DiscoveRx PathHunter D2 beta-arrestin, luminescence, 90 min; 100% = 57 uM dopamine signal; activation, % (no concentration beside the values); actives 0.084% (n = 360,000); AID 624465; in the data active = activation above about 40%; inconclusive = about 15% to 40%; inactive = below about 15%; also: compound concentration not given in the record; the text of the record calls up to 30% inactive
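Agonist mode: compounds alone added to overnight-plated D2 PathHunter cells for 90 min at 37 C, with 57 uM final dopamine (EC100) defining full response. Beta-arrestin recruitment detected by chemiluminescent reagent, read after 1 h at ambient temperature.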
PINK1 modulator: PINK1 expression modulation; actives 0.2% (n = 410,000); PINK1 immunofluorescence, high-content cytometry, 24 h; AID 624263; Potency, µM (titrated, usually from 76.6 µM), for the others: top-dose activation (PINK1 increase), hits mostly activators; active = well fitted activation curve with a large enough effect; inconclusive = small, poorly fitted or top-dose-only effect; inactive = flat fitted curve, though single readings scatter; cell line not stated here;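 also: potency is read from the fitted curve at half-maximal effect; % of control where 0% means no effect; nearly all actives have a fitted effect of over 65% in size; a mitochondrial uncoupler was the plate control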
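Measures PINK1 amount and localization on or inside mitochondria by immunofluorescence. Stable cells get compounds at 5 concentrations for 24 hours before fixation and staining; CCCP controls included.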
Six1-Eya2 inh: inhibitors of human Six1/Eya2 interaction; AlphaScreen GST-Six1/His-Eya2 binding, biochemical; stronger effect = lower value; control for the full effect not named in the record; activity change, % (test concentration not listed); actives 0.56% (n = 360,000); in the data active = activity change below about -65%; inconclusive = about -30% to -65%; inactive = above about -30%; also: % is scaled to controls: 0 for no effect and ±100 for the full control effect; compound concentration not given in the record
Target sequence (O00167 whole entry, looked up): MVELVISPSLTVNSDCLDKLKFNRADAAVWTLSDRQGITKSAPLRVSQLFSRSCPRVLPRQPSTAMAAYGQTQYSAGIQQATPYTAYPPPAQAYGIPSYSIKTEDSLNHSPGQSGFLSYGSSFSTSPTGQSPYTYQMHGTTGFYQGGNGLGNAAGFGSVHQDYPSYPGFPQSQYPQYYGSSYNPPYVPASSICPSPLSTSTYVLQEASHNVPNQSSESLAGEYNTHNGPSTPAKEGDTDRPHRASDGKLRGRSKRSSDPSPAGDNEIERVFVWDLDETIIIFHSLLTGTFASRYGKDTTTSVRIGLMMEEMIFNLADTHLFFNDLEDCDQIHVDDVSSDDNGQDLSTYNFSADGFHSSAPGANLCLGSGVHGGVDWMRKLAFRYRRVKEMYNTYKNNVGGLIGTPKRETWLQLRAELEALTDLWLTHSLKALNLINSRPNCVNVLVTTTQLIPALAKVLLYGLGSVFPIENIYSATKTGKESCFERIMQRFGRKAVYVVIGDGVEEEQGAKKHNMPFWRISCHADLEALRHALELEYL
Target sequence (Q15475 whole entry, looked up): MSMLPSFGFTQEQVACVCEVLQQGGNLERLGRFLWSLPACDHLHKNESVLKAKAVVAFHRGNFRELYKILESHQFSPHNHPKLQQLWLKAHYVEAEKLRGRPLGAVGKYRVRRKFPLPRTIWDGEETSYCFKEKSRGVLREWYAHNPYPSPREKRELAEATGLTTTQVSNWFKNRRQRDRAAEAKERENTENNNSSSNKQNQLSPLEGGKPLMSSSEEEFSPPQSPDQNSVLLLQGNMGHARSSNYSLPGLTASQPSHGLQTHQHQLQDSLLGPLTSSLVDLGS
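Compounds are tested against tagged Six1 and Eya2 proteins bridged by glutathione donor and nickel acceptor beads; after a one-hour incubation at 37 °C without light, AlphaScreen emission is recorded.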
CtBP-E1A blk: CtBP/E1A binding inhibition; AlphaScreen GST-E1A/His-CtBP binding, 1536-well; stronger effect = lower value; control for the full effect not named in the record; activity change, % (concentration not given with the values); actives 0.49% (n = 340,000); AID 651724; in the data active means activity change below about -65%; inconclusive means about -30% to -65%; inactive means above about -30%; also: % is scaled to controls: 0 for no effect and ±100 for the full control effect
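AlphaScreen with 125 nM GST-E1A and 125 nM His-CtBP (5X stocks) in Tris pH 8.0, 300 mM NaCl, BSA, Tween 20, TCEP. Compounds preincubated 2 h at 37 deg C, then glutathione donor/nickel acceptor beads added for 1 h at 37 deg C in dark.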
Active calls of the source: *; ? = inconclusive; . = no result given; & = joins results of further samples; [ ] = dose if it differs, or a comment.

Start of the listing, in advance (two entries):
SMILES	TRPML1 agonist	TRPML1 inh	D2 ag	PINK1 modulator	Six1-Eya2 inh	CtBP-E1A blk
CSc1nnc(NC(=O)c2nc(S(=O)(=O)Cc3cccc(C)c3)ncc2Cl)s1	-0.4	2.0	2.1	-2.0%	-27.2	-3.4
CCn1c(SCC(=O)Nc2oc(-c3ccccc3)c(-c3ccccc3)c2C#N)nnc1-c1ccco1	3.6	22.4	0.9	-1.0%	-25.1	-19.3

All compounds of this part (from the top)
SMILES	TRPML1 agonist	TRPML1 inh	D2 ag	PINK1 modulator	Six1-Eya2 inh	CtBP-E1A blk
CSc1nnc(NC(=O)c2nc(S(=O)(=O)Cc3cccc(C)c3)ncc2Cl)s1	-0.4	2.0	2.1	-2.0%	-27.2	-3.4
CCn1c(SCC(=O)Nc2oc(-c3ccccc3)c(-c3ccccc3)c2C#N)nnc1-c1ccco1	3.6	22.4	0.9	-1.0%	-25.1	-19.3
Cc1onc(-c2ccccc2Cl)c1C(=O)Nc1ccc(-c2nnc3n2CCCCC3)cc1	1.5	-13.2	-1.5	2.7%	2.0	-3.6
CCNc1nc(NCC)nc(N(CC)C(N)=S)n1	-0.4	16.7	-0.4	0.3%	6.7	7.3
Cc1ccc2nc(C)c(C(=O)N/N=C/c3ccccc3[N+](=O)[O-])cc2c1	-1.7	-19.8	-3.2	12.4%	-2.0	-3.0
Cc1ccc2c(=O)c(C(=O)c3ccc(Cl)cc3)cn(CC(=O)Nc3ccc4c(c3)OCCO4)c2n1	-0.5	6.0	.	7.1%	.	.
COc1cccc(OCc2cc(C(=O)NC3CCOCC3)no2)c1	1.6	5.3	-0.4	-1.7%	6.2	2.0
O=C1/C(=C/c2ccco2)SC(=S)N1c1cccnc1	1.0	-1.6	-1.0	-1.2%	-70.7*	-28.9
O=C(NC1CCCC1)c1ccc2c(c1)N(Cc1ccc(F)cc1)C(=O)c1ccccc1S2	1.3	69.2	.	-1.1%	.	.
Cn1cc(C(=O)NS(=O)(=O)Nc2ccc(Br)cc2)c2ccccc21	-0.5	11.2	1.6	0.8%	4.2	.
CCCC1=C(C(=O)OCC)C(c2cccnc2)n2nc(C)nc2N1 (configuration not stated)	-0.8	9.3	-1.4	-2.4%	3.8	3.4
CCN(CC)CCCN(Cc1cc2ccc(C)c(C)c2[nH]c1=O)C(=O)NC1CCCCC1	-0.3	-15.2	0.3	0.2%[38.3 µM]	-3.4	-15.3
COc1ccccc1NC(=O)CSc1nccn1Cc1ccccc1	0.7	-6.3	2.6	-0.9%	-6.3	-1.4
CO/N=C1\CCCc2c(C(=O)NN)sc(SC)c21	1.5	-7.9	2.6	11.2%	-0.1	-1.4
O=C(COC(=O)c1ccco1)Nc1cccc(Br)c1	0.8	-2.8	1.0	-1.9%	10.0	-1.8
CS(=O)(=O)c1ccc(C(=O)NCc2ccccc2F)cc1	-0.4	-1.7	0.4	3.1%	12.4	5.3
CNc1ccccc1C(C)(C)c1cc(-c2cccc(OC)c2)no1	1.4	13.0	7.7	?	-27.8	2.8
O=C(Cn1nnc(-c2ccccc2)n1)Nc1cccc(S(=O)(=O)N2CCCC2)c1	0.7	-13.0	-2.5	-0.7%	-4.3	7.7
Cc1ccc(-n2c(-c3ccco3)n[nH]c2=S)cc1	-0.2	7.8	2.8	5.0%	-0.7	0.2
Cc1ccc(-c2nn3c(C)nnc3c3ccccc23)cc1S(=O)(=O)N1CCN(CCO)CC1	-0.3	-0.4	-2.6	7.8%[38.3 µM]	-26.3	-28.1
CCS(=O)(=O)c1ccc2oc(Nc3ccc(OC)cc3)nc2c1	1.1	3.0	-3.6	-0.7%	-3.9	10.9
COc1ccc(S(=O)(=O)N2CCOCC2)cc1NC(=O)Cc1ccccc1Cl	-0.3	-5.9	-5.5	7.1%	-1.1	-13.0
COC(=O)Cn1c(=O)c2c(nc3n2CC(C)CN3Cc2ccccc2)n(C)c1=O (configuration not stated)	-0.6	-0.7	-3.3	-1.1%	0.8	0.0
O=C(c1cccs1)N1CCN(C2CCCCC2)CC1	-0.6	-7.6	-1.0	-1.9%	0.3	2.5
Cc1cccn2c(=O)c(/C=C(\C#N)S(=O)(=O)c3ccccc3)c(N3CCC(C(N)=O)CC3)nc12	0.5	-1.4	-3.3	-3.1%	?	?
O=S(=O)(Nc1ccc(C(F)(F)F)cc1)c1cnc[nH]1	-0.9	31.8	-3.2	-0.2%	19.1	5.4
CCOc1ccccc1CNC(=O)CN(c1ccc(C)cc1)S(=O)(=O)N(C)C	5.8	35.1	.	1.9%	.	.
COc1ccc(CN(C)C(=O)Cn2ccc(N)nc2=O)cc1OC	-0.6	11.9	-2.6	2.7%	5.8	2.5
CC(CCOC1=NS(=O)(=O)c2ccccc21)NC(=O)C(=O)Nc1ccccc1 (configuration not stated)	-0.9	8.0	-3.5	1.0%	-5.2	5.1
Cc1nn(-c2ncc(C(F)(F)F)cc2Cl)c(=O)n1-c1cccc(Cl)c1	-0.7	-11.4	-1.1	-1.4%	3.6	4.1
COc1ccccc1NC(=S)N(Cc1cccs1)C1CCCC1	2.9	-8.4	-2.4	0.5%	17.3	0.3
COc1ccc(NC(=O)C2CCCN2c2nn3c(=O)cc(C)nc3s2)cc1 (configuration not stated)	-0.1	16.7	-1.0	2.8%	18.8	19.9
COc1ccc(OC)c(NC(=O)c2c(NCc3cccs3)sc3c2CCCC3)c1	1.8	22.8	.	5.9%	.	.
CCOC(=O)C1CCCN(CC(O)COCc2ccc3c(c2)OCO3)C1 (configuration not stated)	0.2	11.3	-8.5	0.1%	-15.1	-1.6
C#CCOc1ccc(CNC[C@H]2O[C@@H](n3cnc4c(N)ncnc43)[C@H](O)[C@@H]2O)cc1	-1.1	-8.2	-3.5	1.1%	2.9	-1.0
CCc1ccc(C2CC(c3ccccc3C)n3nc(N)nc3N2)cc1 (configuration not stated)	3.0	16.9	1.0	5.8%	3.4	3.9
O=S(=O)(NCc1ccc(Cl)cc1Cl)c1ccc(N2CCOCC2)nc1	-0.9	-0.5	-1.6	0.9%	-6.8	4.7
CCN(CC)CCCOc1nc(C)nc2c1oc1ccccc12	-0.3	-8.1	-6.6	1.2%	-6.3	-12.2
NC(=S)N/N=C/c1ccc(-c2ccc([N+](=O)[O-])cc2)o1	1.3	-3.2	8.2	-0.6%	-27.8	-0.9
Cc1cccc(C(=O)NNC(=O)CCn2nnc3ccccc32)c1	-0.4	47.5	-3.5	3.6%	0.5	3.5
Cc1ccc(Nc2nc(CSc3nnc(-c4ccncc4)n3-c3ccccc3C)cs2)cc1	2.9	-2.7	0.8	16.1%	?	-23.6
CN(C(=O)CSc1nnc(-c2cccs2)n1N)c1ccccc1	-1.4	72.7	-0.4	3.5%	-13.3	.
CCCNC(=O)C1(C)CCN(C(=O)c2ccc3ccccc3c2)C1 (configuration not stated)	0.3	2.1	-2.2	-0.8%	1.9	1.9
O=C(NCc1ccccc1)C1c2ccccc2OCC(=O)N1Cc1ccco1 (configuration not stated)	-0.3	.	.	-0.9%	1.4	3.8
CCCOc1ccc(-c2nnc(-c3ccco3)o2)cc1	0.5	4.8	1.5	1.2%	-11.5	-14.4
Cn1c(=O)c2c(ncn2CC(=O)N/N=C/c2ccco2)n(C)c1=O	1.4	25.7	-0.1	1.6%	9.5	-5.3
O=S(=O)(NCc1cccnc1)c1ccc(Cl)cc1	.	.	7.1	0.7%	-11.2	.
CCOc1ccc(N2C(=O)C3Sc4[nH]c(=O)sc4C(c4ccc(OC)c(OC)c4)C3C2=O)cc1 (configuration not stated)	-0.1	20.0	-3.7	-1.2%	-2.3	-14.6
O=C(CSc1nc(Nc2ccccc2)nc(N2CCOCC2)n1)N1CCCC1	0.3	8.3	1.6	-5.8%	2.9	-5.0
CCOC(=O)c1cc2c(=O)n3ccccc3nc2n(CC2CCCO2)c1=NC(C)=O (configuration not stated)	-0.2	-4.3	0.7	4.2%	9.6	2.9
O=C(Nc1ccc(Cl)cc1)c1csc(-c2ccccc2)n1	2.7	48.7	-0.7	-0.4%[38.3 µM]	10.5	18.5
Cc1onc(-c2c(F)cccc2Cl)c1C(=O)Nc1nc2c(s1)CCCC2	0.3	13.5	1.2	18.6%[38.3 µM]	-12.4	-17.6
Cc1ccc(N2CCN(CCCCN3C(=O)C4CCCN4C3=O)CC2)cc1 (configuration not stated)	-0.5	-4.6	-1.2	4.6%	-3.1	-3.6
CC(=O)Nc1ccc(Nc2nnc(-c3ccc(O)cc3)c3ccccc23)cc1	-0.6	1.1	-1.6	6.5%	?	?
CO/N=C/C1C(=O)NN=C1c1ccccc1 (configuration not stated)	-0.7	16.4	0.8	0.5%	1.3	3.4
CC(=O)N1c2ccccc2N2C(c3c(C)c(C)cc(C)c3C)=NON12	1.4	-9.9	-0.2	0.6%	16.2	0.0
Cc1ccc(S(=O)(=O)CCC(=O)OCc2cc(=O)oc3cc(C)ccc23)cc1	-0.4	-10.9	-1.9	1.7%	-0.2	.
CCN(CC)C(=O)c1sc2c(c1C)c(=O)n(-c1ccc(Cl)c(Cl)c1)c(=O)n2CC(=O)Nc1cccc(OC)c1	1.4	17.1	.	-0.4%	.	.
COc1cc(CNc2cccc3[nH]c(C(F)(F)F)nc23)cc(OC)c1	1.8	7.5	0.8	31.6µM*	-2.7	.
COc1ccc(CCC(=O)Nc2ccc(S(=O)(=O)N3CCOCC3)cc2)cc1	3.3	-5.0	2.5	5.7%	-8.2	2.0
Next part
SMILES	TRPML1 agonist	TRPML1 inh	D2 ag	PINK1 modulator	Six1-Eya2 inh	CtBP-E1A blk
O=C(CCc1ccccc1F)N1CCN(c2ccc(C(F)(F)F)cn2)CC1	2.5	-14.8	-4.6	1.3%	31.8	6.2
CCNC(=O)NC(=O)C(C)OC(=O)C1CCN(S(=O)(=O)c2ccccc2C(=O)OC)CC1 (configuration not stated)	0.6	15.6	-18.7	-1.2%	0.0	9.5
CCCCN(C)CCCNC(=O)c1cc(-c2cccnc2)nc2ccccc12	0.4&0.3	?	5.1	1.1%&-2.3%	-4.6	-10.0
COc1ccc(OC)c(S(=O)(=O)NCCCn2ccnc2)c1	0.8	-4.3	-3.8	1.0%	3.2	-15.7
C(#Cc1ccccc1)Cn1nnc2ccccc21	-0.2	-11.5	-1.0	3.6%[38.3 µM]	9.1	25.0
COc1ccc(-n2c(SCC(=O)NC3CCCCC3)nc3c([nH]c4ccccc43)c2=O)cc1	1.7	-3.3	.	-2.6%	.	.
CCCCN1C(=O)C(CC(=O)NCCCN(C)C)CC(C(=O)N2CCCCCC2)=C1C (configuration not stated)	-0.2	.	.	-1.1%	-1.5	6.1
COc1ccc(C(CNC(=O)C(=O)Nc2ccc3c(c2)OCCO3)N2CCN(C)CC2)cc1 (configuration not stated)	0.7	-13.6	-7.5	-2.3%	-3.5	1.2
COc1cc(C(CCN2CCN(c3ccccc3)CC2)c2c(OC)cc(OC)c3ccc(=O)oc23)cc(OC)c1OC (configuration not stated)	-0.1&3.0	-14.2&-4.3	2.0	-0.2%	-10.9	-15.3
Oc1ccc(NC(=S)N=Nc2c(O)[nH]c3ccccc23)cc1	-0.1	8.0	-6.7	-0.3%	-71.4*	-72.3*
CN(C(=O)c1ccccc1[N+](=O)[O-])c1ccccc1C(=O)NCc1ccccc1	0.1	21.5	-0.2	-2.7%	20.3	-6.7
